Compound activity (PubChem)
GLA inh pH 4.5 = blocks human alpha-galactosidase A at pH 4.5 | purified enzyme, 4-MU-alpha-Gal fluorescence, pH 4.5 | P06280 | 230,000 tested, under 10 active | activity change, negative = inhibition, % at 105 µM; inconclusive = small, poorly fitted or top-dose-only inhibition, or a rising curve; inactive = flat fitted curve, though single readings scatter; no compound was filed as active;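 note: 0% = full activity with enzyme and -100% = basal without enzyme; dose as in the result columns while the protocol names 77 µM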
Target sequence (P06280 whole entry, looked up): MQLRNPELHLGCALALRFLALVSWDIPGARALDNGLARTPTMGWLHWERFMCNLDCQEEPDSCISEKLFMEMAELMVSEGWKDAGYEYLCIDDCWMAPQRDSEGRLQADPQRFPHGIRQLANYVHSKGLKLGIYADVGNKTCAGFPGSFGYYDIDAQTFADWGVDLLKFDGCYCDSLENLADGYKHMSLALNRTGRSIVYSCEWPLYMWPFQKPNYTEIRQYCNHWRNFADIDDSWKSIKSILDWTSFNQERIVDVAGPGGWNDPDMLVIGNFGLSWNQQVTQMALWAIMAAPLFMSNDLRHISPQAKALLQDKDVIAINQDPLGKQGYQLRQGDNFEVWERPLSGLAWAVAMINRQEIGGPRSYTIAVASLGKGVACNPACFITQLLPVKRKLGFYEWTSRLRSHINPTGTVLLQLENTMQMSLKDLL
Rango release inh = prevents RanGTP from dissociating the Rango-importin beta complex. O95149+P62826. Biochemical FRET Rango-importin beta, RanGTP-induced dissociation. Potency, µM (series often up to 46.1 µM), without a hit: at the highest dose activity change, negative = inhibition. 340,000 tested, 0.071% active. AID 540253; active means falling FRET ratio curve, often poorly fitted, with flat reads before Ran was added; inconclusive means other falling curves, or compound fluorescence or quenching; inactive means flat or rising ratio curve;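 note: potency is the fitted concentration of half-maximal effect; % of control where 0% means no effect; nearly all actives have a fitted effect of over 45% in size; -100% = wells without RanGTP and RCC1; the record marks most hits as doubtful in a second field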
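FRET read at 45 min, room temperature: inhibitors block the CFP/YFP signal rise when RanGTP (0.6 uM Ran, 2 mM GTP, 0.2 uM RCC1) frees Rango (0.1 uM) from importin beta (0.25 uM). Pre-read after 5 min compound exposure flags interference.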
Rango-impB inh = prevents formation of the Rango-importin beta complex. Potency, µM (series often up to 92.2 µM), for the others: at the top dose inhibition of complex formation. Q14974. 340,000 tested, 0.031% active. AID 540263. Rango CFP/YFP FRET sensor + importin beta, 45 min; active = rising FRET ratio curve, often small or poorly fitted; inconclusive = mostly compound fluorescence or quenching in the first reads; inactive = flat curves in all reads;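 note: potency is the fitted concentration of half-maximal effect; 0% = DMSO wells and 100% = buffer wells lacking importin beta; nearly all actives have a fitted effect of over 15% in size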
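FRET biosensor Rango (snurportin 1 IBB between N-terminal EYFP and C-terminal Cerulean), 50 nM in PBS/1 mM DTT/0.02% Tween-20/0.1% BSA, preincubated 5 min RT with compound; 0.125 microM importin beta added, 45 min RT, CFP/YFP FRET ratio read.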
miR-21 FLuc = miR-21 reporter, rising signal; HeLa miR-21 FLuc reporter, luciferase, 48 h; Potency, µM (highest dose often 38.3 µM), inactives show at the top dose reporter change, positive = more light; 340,000 tested, under 10 active; AID 2288; active = well fitted rising curve with a large enough effect; inconclusive = small, poorly fitted or top-dose-only effect; inactive = no such curve, though single readings can be large or run the other way;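 note: % of control where 0% means no effect; miR-21 action dims this reporter so a rising signal means less miR-21 action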
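HeLa miR-21-FLuc reporter line, endogenous miR-21; 2000 cells/well in DMEM/10% FBS; compound titration up to ~40uM final, 48 h, 37 degree Celsius; luciferase detection reagent, 15 min lysis, CCD luminescence.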
* = called active by the depositor; ? = inconclusive; nt = no result given; & = joins results of further samples. Not all compounds are listed (hit frequency here may not be typical).

Rango release inh,Rango-impB inh,GLA inh pH 4.5,miR-21 FLuc,mol
-22.4%,0.8%,nt,-59.8%,CCOc1ccc(C(=O)N2CCc3ccccc32)cc1
-0.8%,-0.6%,nt,nt,COC(=O)c1c(C)[nH]c(C(=O)COc2ccc3ccc(=O)oc3c2)c1C
2.0%,0.0%,nt,nt,CCOC(=O)CCCCCC(=O)Nc1ccc2c(c1)C(=O)N([C@H](C)CO)C[C@H](C)[C@@H](CN(C)C(=O)Nc1ccc(OC)cc1)O2
1.2%,-1.6%,nt,2.3%,Cc1ccc(C)c(N2CCN(CCCNC(=O)CCn3c(=O)c4cccn4c4cccnc43)CC2)c1
-7.6%,0.2%,-5.6,-1.8%,Cc1cc(C)nc(N2CCC(C(=O)Nc3ccc4c(c3)OCCO4)CC2)n1
-25.2%,6.8%,4.3,-6.3%,CC(C)OCCCNC(=O)c1cc(Sc2ccc(F)cc2)nc2ccccc12
-8.6%,-1.4%,nt,nt,COc1ccc(NS(=O)(=O)c2c(F)cccc2F)cc1S(=O)(=O)N1CCOCC1
-8.8%,0.9%,-0.1,-0.4%,O=C(CC1C(=O)NCCN1Cc1cccc(Oc2ccccc2)c1)NCCc1ccccn1 (stereo unspecified)
3.1%,1.9%,?,-5.6%,COc1ccc(OC)c(C(=O)N2CCC(C(=O)c3ccc(F)cc3)CC2)c1
-6.2%,1.6%,-28.1,?,Clc1ccc2c(c1)C(N1CCNCC1)Cc1ccccc1S2 (stereo unspecified)

Compounds shown so far that contain sulfur, in the order listed:
Rango release inh,Rango-impB inh,GLA inh pH 4.5,miR-21 FLuc,mol
-25.2%,6.8%,4.3,-6.3%,CC(C)OCCCNC(=O)c1cc(Sc2ccc(F)cc2)nc2ccccc12
-8.6%,-1.4%,nt,nt,COc1ccc(NS(=O)(=O)c2c(F)cccc2F)cc1S(=O)(=O)N1CCOCC1
-6.2%,1.6%,-28.1,?,Clc1ccc2c(c1)C(N1CCNCC1)Cc1ccccc1S2 (stereo unspecified)

Later entries
Rango release inh,Rango-impB inh,GLA inh pH 4.5,miR-21 FLuc,mol
18.4µM*,?,2.0,-8.4%,O=C(c1sc2ccccc2c1Cl)N(Cc1ccco1)C1CCS(=O)(=O)C1 (stereo unspecified)
-12.8%,?,nt,nt,COC(=O)C1CCN(C(=O)c2cc(-c3ccco3)nc3ccccc23)CC1
42.2%,-0.1%,nt,nt,C[C@@H](CN1CCC[C@H]1CN1C(N)=NC[C@@H]1Cc1ccccc1)N1C[C@@H](Cc2ccccc2)N(CCCC2CCCC2)C1=N
9.3%,-5.4%,-9.2,-2.2%,NC(N)=NS(=O)(=O)c1ccc(N=C2C(=O)Nc3ccccc32)cc1
-1.8%,-0.1%,nt,-6.2%,COc1cccc2cc(C(=O)NCCN3CCOCC3)c(=O)oc12
?,?,-6.4,-1.4%,N#CC(C(=O)NCCc1ccccc1)c1nc2ccccc2nc1N1CCOCC1 (stereo unspecified)
-13.9%,-0.5%,nt,2.3%,CC(=O)N1CCC(C(=O)NC2CC(C)(C)Cc3c2cnn3-c2ccc(F)cc2)CC1 (stereo unspecified)
10.5%,-2.5%,1.2,-1.4%,Cc1c(C(=O)N(Cc2ccccc2)C(C)C)cnn1-c1ccccc1
-1.8%,?,nt,nt,CCOc1ccc(OCCC(=O)OCC(=O)N2CCN(c3ccc(OC)cc3)CC2)cc1
-1.3%,2.8%,0.4,-6.8%,Cc1ccc(OCc2nnc(NC(=O)c3cccnc3)s2)cc1
-0.3%,1.5%,nt,-1.7%,Cc1ccc(CNC(=O)COc2ccc(S(=O)(=O)N3CCCC3)cc2)cc1
22.4%,0.1%,nt,-18.0%,COc1cccc(NC(=O)c2cnc(SC)nc2)c1
-12.9%,-2.4%,nt,8.6%,CC(=N\NC(=O)c1ccc([N+](=O)[O-])cc1)/C(=N/O)C(=O)Nc1ccccc1
15.6%,3.1%,nt,-2.4%,COCCCn1c(SCC(=O)Nc2ccccc2F)nnc1-c1ccoc1C
-0.2%,-2.5%,-4.4,-35.9%,NNc1nc2c(F)cccc2s1
14.8%,-0.9%,nt,nt,O=C(O)c1cccc2c1C(=O)c1ccc(Cl)cc1S2(=O)=O
12.6%,-1.1%,-1.5,-0.2%,Cc1ccc2oc(=O)c3cnn(CC(=O)N4CCc5ccccc5C4)c3c2c1
3.5%,-0.1%,-3.0,-13.6%,COC(=O)/C=C1/N/C(=N\c2nc(C)cc(C)n2)N(c2ccc(C)c(C)c2)C1=O
0.9%,-3.1%,-1.0,-12.5%,COC(=O)c1sccc1NC(=O)CSc1cc(Cl)ccc1Cl
15.2%,-1.6%,9.5,-61.9%,O=C(Nc1ccccn1)c1sc2cccc(F)c2c1Cl
?,?,8.7,-20.0%,CCO/C=C1/C(=O)N(C)C(=O)c2cc(OC)ccc21
2.4%,-0.1%,4.5,-1.0%,Cc1c(C(C)O)nnn1-c1nonc1N (stereo unspecified)
-4.3%,-1.2%,0.3,-5.1%,CCOc1ccc(S(=O)(=O)N/N=C(\C)Cc2ccc(OC)cc2)cc1
-6.9%,-0.1%,-0.4,-22.3%,O=C(Nc1c(F)cc(F)cc1Br)c1cc(-c2ccc(O)cc2)on1
0.3%,0.7%,-16.1,?,O=C(Nc1ccccc1)Nc1cc(OCC(F)(F)F)cc(OCC(F)(F)F)c1
nt,nt,8.6,-1.9%,O=C(c1cnc2n(c1=O)CCS2)N1CCN(c2ccccc2Cl)CC1
23.9%,-2.1%,13.2,3.8%,COc1cc(OC)c(OC)cc1CNC1CCCCCC1
4.7%,1.4%,7.5,-0.1%,C=CCNC(=O)C1CCN(c2cc(C)nc(-c3ccccc3)n2)CC1
26.4%,-0.2%,nt,-0.1%,O=C(CCCCCn1c(=S)[nH]c2ccsc2c1=O)NC1CCCCC1
-18.7%,6.4%,4.2,8.2%,Cc1[nH]nc2c1C(C(C)c1ccccc1)C(C#N)=C(N)O2 (stereo unspecified)
-7.3%,0.5%,nt,nt,CCN(CC(=O)Nc1ccc(OC)cc1)C(=O)Cc1cccs1
-3.7%,-4.3%,-8.1,-11.7%,Cc1cc(-c2ccccc2)oc(=O)c1NC(=O)c1ccccc1
2.7%,?,-20.9,?,CN=c1scc(-c2cccs2)n1/N=C/c1ccccc1O
-0.1%,0.5%,?,-0.1%,C=C(C)CC(NCc1ccco1)c1ccc(OC)cc1 (stereo unspecified)
-5.4%,4.8%,8.6,-14.7%,CC(C)(C)C1=Nn2c(nnc2C2CCCCC2)SC1
-13.1%,-0.4%,7.7,-1.8%,CCn1c(C)nc2cc(C(=O)NNC(=O)Nc3ccc(Cl)cc3)ccc21
?,-5.2%,-0.2,-9.5%,COc1cccc2sc(NNC(=O)C3=COCCO3)nc12
1.5%,-3.8%,nt,nt,COc1cc(NC(=O)c2cc(OC)c(OC)c(OC)c2)c2ncccc2c1
-9.5%,1.0%,nt,6.9%&-1.2%,Cc1cccc(NC(=O)c2cc(S(=O)(=O)N3CCCCC3)c[nH]2)c1C
15.3%,4.1%,-18.7,-16.7%,Cc1ccc(CSC2=NCCN2C(=O)C2CC2)cc1
42.8%,1.0%,nt,0.0%,CC(C)(C)CC(=O)Nc1ccccc1N1CCN(c2ccc(F)cc2)CC1
10.5%,-2.3%,nt,-60.7%,COc1ccc2cc3cc(C(=O)N4CCCCCC4)oc3nc2c1
-15.6%,3.8%,nt,nt,CN1CCN(S(=O)(=O)c2ccc(NN)nc2)CC1
0.9%,0.7%,nt,0.6%,CC(C)Cn1c(-c2cccnc2)nc2c1c(=O)[nH]c(=O)n2CC(C)C
4.3%,1.6%,-13.3,-46.5%,Cc1nc2cc(C(=O)O)ccc2s1
-10.1%,4.8%,2.4,-39.8%,N/C(=N\OC(=O)Cc1cccs1)c1ccc([N+](=O)[O-])cc1
0.6%,0.6%,-16.2,28.3%,O=C1c2cccc(OCC(=O)N3CCCc4ccccc43)c2CCN1Cc1ccc(F)cc1
11.8%,-3.1%,nt,-7.1%,CCC1C(=O)NCCN1C(=O)c1ccc2nc(Cc3ccc(OC)cc3)oc2c1 (stereo unspecified)
2.5%,3.5%,nt,nt,c1ccc(C(=NNc2nc3ccccc3s2)c2ccccn2)cc1
7.6%,0.6%,-0.9,-18.9%,C(=N\n1cnnc1)/c1ccc(-c2ccccc2)cc1

More entries:
Rango release inh,Rango-impB inh,GLA inh pH 4.5,miR-21 FLuc,mol
9.9%,1.4%,nt,-0.8%,NC(=O)CC(NC(=O)c1ccccc1)c1ccc(NC2CCN(Cc3ccccc3)CC2)c([N+](=O)[O-])c1 (stereo unspecified)
13.2%,-2.3%,-5.7,-6.3%,Nc1nonc1C(=O)NCCNC(=O)c1ccccc1F
8.2%,?,-9.9,-15.9%,Cc1ccc(-c2csc(N/N=C/c3ccco3)n2)c(C)c1
-2.9%,-0.8%,nt,?,CCCNC(=O)c1ccc(S(=O)(=O)c2ccc(OC)cc2)c([N+](=O)[O-])c1
19.9%,-0.7%,nt,nt,CCN(CC)CCCn1c2c(c(SCC(=O)Nc3ccc(OC(F)(F)F)cc3)nc1=O)CCC2
2.0%,0.6%,nt,-23.0%,Cc1ccc(Nc2nc3ccccc3n3cnnc23)c(Cl)c1
27.6%,-2.7%,4.2,-8.4%,O=C(O)C1(P(=O)(c2ccccc2)c2ccccc2)CCC1
9.3%,-4.6%,nt,10.6%,CN1C(=O)/C(=C/c2ccccc2F)Sc2ccc(C(=O)NCC3CCCO3)cc21 (stereo unspecified)
0.1%,0.0%,8.0,1.4%,O=C(Nc1ccc(Cl)cn1)Nc1ccc(Cl)cn1
11.5%,1.2%,-3.0,-8.9%,Cc1cc(Nc2ccccc2)nn1C(=O)c1ccc(Cl)cc1
-7.6%,-0.8%,nt,nt,Cc1cc(C)nc(NC(=O)CCN2C(=O)c3ccccc3S2(=O)=O)n1
0.5%,3.0%,nt,3.8%,CC(NC(=O)CN1CCCC1)c1ccccc1 (stereo unspecified)
?,?,nt,10.8%,CCCn1nc(NC(=O)C(C)(C)C)c2cc3cc(OC)ccc3nc21
6.8%,-1.7%,-0.9,-3.1%,Cc1ccc2oc(=O)c3cnn(CC(=O)NC4CCN(Cc5ccccc5)CC4)c3c2c1
-3.3%,-2.4%,4.8,-0.4%,COCCn1nnnc1SCC(=O)NCc1ccc2c(c1)OCO2
9.5%,0.8%,8.0,-3.7%,COC(=O)c1ccccc1S(=O)(=O)N1CCn2cccc2C1C (stereo unspecified)
-6.6%,-2.2%,nt,nt,O=C(Nc1ccccc1F)C1CCCC1
-6.1%,1.8%,4.1,-52.9%,CCOC(=O)c1ccc2nc(NC(C)=O)sc2c1
-9.8%,1.4%,-2.1,-4.2%,CCCC(=O)C1C(=O)CC(CC(C)SCC)CC1=O (stereo unspecified)
-23.9%,7.0%,0.7,-8.4%,O=C(COC(=O)C1CC(O)CN1S(=O)(=O)c1ccc(Cl)cc1)c1cccc(Cl)c1 (stereo unspecified)
-9.8%,?,nt,nt,COc1ccc(NC(=O)CN(C)C(=O)Cc2c(C)nc3ccccc3c2C)cc1
13.3%,-0.3%,nt,-33.6%,O=C(Nc1ccc(Br)cc1)C1CC(c2c(F)cccc2Cl)=NO1 (stereo unspecified)
-14.3%,-2.1%,4.1,20.8%,Cc1nn(Cc2ccc(Cl)cc2)c(C)c1NC(=O)c1cc(-c2ccco2)on1
-13.8%,1.2%,nt,-14.6%,O=C(CCCc1ccccc1)Nc1ccccc1C(F)(F)F
?,16.9%,nt,0.7%,COc1ccc(OC)c(C(C(=O)NC2CCCCC2)N(Cc2ccco2)C(=O)c2ccccn2)c1 (stereo unspecified)

Printed as active in Rango release inh, among the entries above:
Rango release inh,Rango-impB inh,GLA inh pH 4.5,miR-21 FLuc,mol
18.4µM*,?,2.0,-8.4%,O=C(c1sc2ccccc2c1Cl)N(Cc1ccco1)C1CCS(=O)(=O)C1 (stereo unspecified)
